Sa growth 42C – inhibitors of Staphylococcus aureus growth at 42 °C. S. aureus RN4220 growth, OD600, 20 h; stronger effect = lower value. relative growth, % (test concentration not listed). 0.53% of 170,000 active. AID 720641;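 active = growth at 42 °C up to 50% and 20 or more points under that at 30 °C, or under 10% at both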;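 also: 300 nL library stock went into each well; scaled to the means of positive and negative controls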
HCMV NEC inh – inhibitors of HCMV UL50-UL53 nuclear egress complex interaction; HTRF UL50-UL53 interaction, normalized percent inhibition; inhibition, % (concentration not given with the values); 0.15% of 190,000 active; AID 1918969;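 active = both replicates at 50% or more, plus weaker picks with an unusually low signal ratio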;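 also: stock transfer was 100 nL into about 20 µL; 0% = negative control wells and 100% = wells with untagged competitor protein; inactives centre near -12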
GIV-Gai inh – inhibitors of GIV GBA-motif binding to rat Galpha-i3 | 0.42% of 210,000 active | AID 1224905 | Galpha-i3/FITC-GIV peptide fluorescence polarization, 90 min; stronger effect = lower value; scaled: aluminum fluoride 0%, vehicle 100% | percent of control (FP), % (test concentration not listed) | P08753;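 active = replicate mean at 85% of control or lower, very high polarization wells dropped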;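 also: wells of about 15 µL received 100 nL stock; the first replicate is given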
Target sequence (P08753 whole entry, looked up): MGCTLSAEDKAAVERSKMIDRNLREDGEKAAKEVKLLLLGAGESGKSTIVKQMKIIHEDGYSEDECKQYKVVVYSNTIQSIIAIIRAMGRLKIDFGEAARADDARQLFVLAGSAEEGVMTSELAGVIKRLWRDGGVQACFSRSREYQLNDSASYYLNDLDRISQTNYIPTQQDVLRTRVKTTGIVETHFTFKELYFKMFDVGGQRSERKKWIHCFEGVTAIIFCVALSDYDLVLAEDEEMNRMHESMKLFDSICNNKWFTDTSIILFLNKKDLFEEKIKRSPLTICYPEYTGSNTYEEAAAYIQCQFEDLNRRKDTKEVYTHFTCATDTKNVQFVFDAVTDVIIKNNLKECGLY
Sa growth 42C second temp – further read-out of Sa growth 42C, marked with its call; relative growth, %; measured here: growth at 30 °C;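 optical density after 20 h as mean of two plates; 100% = untreated growth and lower means inhibition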
* marks the source's active call; other numbers are inactive results; / = not tested or not shown; & = joins results of further samples. The order is random; any-hit rate near 0.83%.

SMILES | Sa growth 42C | Sa growth 42C second temp | HCMV NEC inh | GIV-Gai inh
CCOC(=O)c1cc2n(n1)CC(C)(C(=O)NCCC(C)C)N(c1cccc(C)c1C)C2=O (stereo not given) | / | / | 11 | 100
CCCCc1c(O)nc(SCC(=O)N2CCCCC2)[nH]c1=O | 95 | 90 | / | 101
CCc1ccccc1Nc1nnc(C)c(=O)[nH]1 | / | / | -26 | 98
CCC1Sc2cc(S(=O)(=O)CCC(=O)N3CCCCC3)ccc2NC1=O (stereo not given) | 128 | 90 | / | 104
NNC(=O)c1csc(-c2cccs2)n1 | 129 | 84 | -96 | 106
Cc1ccc2oc(=O)c3cnn(CC(=O)Nc4cc(-c5cccc(Cl)c5)no4)c3c2c1 | 103 | 87 | 0&-21 | 104&101
CC(=O)N1CC=C2C(C#N)=C(N)C(C#N)(C#N)C(Cc3ccccc3)C2C1 (stereo not given) | 99 | 84 | -24 | 101
CC(C)(C)OC(=O)N1CCC(c2c(C(=O)N3CCCCC3)cnn2-c2ccc(F)cc2)CC1 | 99 | 89 | / | 99
O=C(NCCN1CCOCC1)c1ccc(NC(=O)C2COc3ccccc3O2)cc1 (stereo not given) | 108 | 81 | -6 | 104
CCc1cc(=O)n2[nH]c(NCc3cccc(C)c3)nc2n1 | / | / | -21 | 107
Cc1nc(CNC(=O)c2coc(C3CC3)n2)no1 | / | / | -8 | 101
O=C(Cc1cc(=O)[nH]c(=O)[nH]1)N1CCCCC1 | 84 | 81 | -27 | 94
CCOC(=O)c1[nH]c(=O)c2ccccc2c1O | 99 | 93 | -12 | 110
O=C(NCC1CCCO1)c1ccc(-n2nc(OCc3ccc(Cl)cc3)ccc2=O)cc1 (stereo not given) | / | / | -85 | 104
Cc1ccc(N(CC(=O)Nc2ccc(Cl)cn2)S(=O)(=O)c2c(C)nn(C)c2C)cc1 | / | / | 4 | 105
Cc1cc2c(cc1C)C(c1ccncc1)CC(=O)N2 (stereo not given) | 87 | 86 | -2 | 98&99
CCOC(=O)c1oc2ccccc2c1COC(=O)c1ccc(S(C)(=O)=O)cc1 | 108 | 90 | 1 | /
CCc1nc(NCCN(CC)CC)c(C#N)c2c1COC(C)(C)C2 | 98 | 90 | -9 | 100
COc1ccc(C2C(=O)N(C3CCCCC3)CC(=O)N2Cc2ccccc2)cc1 (stereo not given) | 93 | 99 | -11 | 108
COc1ccc(C(CNC(=O)COc2ccc(F)cc2)N2CCCCC2)cc1 (stereo not given) | / | / | -11 | 101

Single records, as listed above.
O=C(NCC1CCCO1)c1ccc(-n2nc(OCc3ccc(Cl)cc3)ccc2=O)cc1 (stereo not given) across the screens: Sa growth 42C = /; Sa growth 42C second temp = /; HCMV NEC inh = -85; GIV-Gai inh = 104
Cc1nc(CNC(=O)c2coc(C3CC3)n2)no1 across the screens: Sa growth 42C = /; Sa growth 42C second temp = /; HCMV NEC inh = -8; GIV-Gai inh = 101
NNC(=O)c1csc(-c2cccs2)n1 across the screens: Sa growth 42C = 129; Sa growth 42C second temp = 84; HCMV NEC inh = -96; GIV-Gai inh = 106

2 entries from above, as tab-separated lines.
mol	Sa growth 42C	Sa growth 42C second temp	HCMV NEC inh	GIV-Gai inh
O=C(NCC1CCCO1)c1ccc(-n2nc(OCc3ccc(Cl)cc3)ccc2=O)cc1 (stereo not given)	/	/	-85	104
COc1ccc(C2C(=O)N(C3CCCCC3)CC(=O)N2Cc2ccccc2)cc1 (stereo not given)	93	99	-11	108

Following part
SMILES | Sa growth 42C | Sa growth 42C second temp | HCMV NEC inh | GIV-Gai inh
Cc1cc(F)ccc1NS(=O)(=O)c1cc(-c2n[nH]c(=O)c3c2CCCC3)ccc1C | / | / | -11 | 97
Cc1cc(NC(=O)CSc2nc3c([nH]c4ccccc43)c(=O)n2-c2cccc(Cl)c2)no1 | 112 | 87 | / | 100
Cc1noc(C)c1COc1cc2ccccc2cc1C(=O)O | 110 | 107 | -4 | /
CC1=C(c2ccc(F)cc2)S(=O)(=O)N=C1N1CCC(C(=O)NCCc2cccc(C)c2)CC1 | 118 | 89 | / | 101
Clc1ccc(Nc2nc(-c3ccccc3)c3ccccc3n2)c(Cl)c1 | 101 | 98 | -22 | 98
O=C(O)c1ccccc1C(F)(F)F | 128 | 89 | -18 | /
CCOC(=O)c1csc(-c2cccc(C(F)(F)F)c2)n1 | / | / | 2 | 107
CCC(C(=O)NCCc1ccc(OC)c(OC)c1OC)n1nc(C)c2sc3ccccc3c2c1=O (stereo not given) | 79 | 78 | -1 | 110
O=C(CCCn1c(=O)[nH]c2cc(Cl)ccc2c1=O)NCC1CCCO1 (stereo not given) | 113 | 84 | 1 | 105
COc1ccc(OCC(=O)N/N=c2\oc3c(OC)cccc3cc2C(N)=O)cc1 | 98 | 82 | -33 | 104
CC(OC(=O)Cn1cnc2ccccc2c1=O)C(=O)NCc1ccccc1 (stereo not given) | 87 | 96 | -1 | /
O=C(NCc1cccc(Cl)c1)c1cnc(N2CCOCC2)c2ccccc12 | 106 | 89 | / | 105
CCOC(=O)c1cnn2c(-c3ccc4c(c3)OCO4)ccnc12 | / | / | -45 | 100
O=C(c1ccncc1)N1N=C(c2ccc(Cl)cc2)CC1(O)C(F)(F)F (stereo not given) | / | / | -7 | 112
O=c1oc2cc(S(=O)(=O)N3CCOCC3)ccc2n1Cc1noc(C2CCC2)n1 | / | / | -15 | 107
COC(=O)c1nc2ccccc2nc1N1CCN(c2ccc(F)cc2)CC1 | / | / | -24 | 95
CC(C)C(=O)N1CCc2c(c(C(=O)NCc3ccccc3)nn2C)C1 | / | / | -5 | 104
Cc1cc(C)c2c(=O)[nH]c(SCC(=O)Nc3ccccc3)nc2n1 | 119 | 93 | / | 106
Cc1cc(C)cc(NC(=O)CCCc2nc(-c3ccco3)no2)c1 | 94 | 91 | -13 | 102
COC(=O)c1c(NC(=O)CSc2nnc3cc(C)c4ccccc4n23)sc2c1CCC(C)C2 (stereo not given) | / | / | -16 | 108
CCc1ccc(NC(=O)CN2C(=O)C(=O)c3ccccc32)cc1 | 113 | 81 | -28 | 104
CC1CCN(S(=O)(=O)c2cn(CC(=O)Nc3cccc(C(F)(F)F)c3)c(=O)c3ccccc23)CC1 | 104 | 85 | -2 | 107
FC(F)(F)c1cc(Sc2ccccc2)nc(-c2ccccn2)n1 | / | / | 5 | 107
CC(C)C(=O)Nc1ccc(N)cc1 | 91 | 92 | -4 | /
COc1ccccc1OCc1nc2ccccc2n1Cc1ccccc1 | 113 | 92 | / | 100
Cc1nc2sccn2c(=O)c1S(=O)(=O)NC1CCCCC1 | / | / | -17 | 97
Cc1oc2cc3oc(=O)c(CCC(=O)NCCc4ccccc4F)c(C)c3cc2c1C | 97 | 90 | 7 | 104
Cc1ccc(-c2cc(C(=O)OCC(=O)Nc3ccc(S(N)(=O)=O)cc3)c3ccccc3n2)cc1 | 91 | 75 | 0 | 103
O=C(Nc1cccc(Cl)c1)C1CCCN(c2ncnc3c2nc2n3CCCCC2)C1 (stereo not given) | 79 | 44 | 12&-18 | 102&101
CCN(C(=O)CCn1c(=O)sc2ccccc21)c1cccc(C)c1 | 90 | 79 | -23 | 102
CCn1c(-c2cccs2)c(CNC(=O)NCc2ccccc2)c2ccccc21 | 114 | 96 | 10 | 104
Cn1c(=O)c2ccc(C(=O)NC3CCCCC3)cc2n2c(SCC(=O)NC3CCCCC3)nnc12 | / | / | -14 | 107
Cc1ccc(C)c(Cn2nnc3c(=O)[nH]c(C4CCCN(C(=O)Cc5ccccc5C)C4)nc32)c1 (stereo not given) | / | / | -6 | 101
CC1=C(C(=O)OCc2ccccc2)C(c2ccc(OCc3ccccc3)cc2)NC(=O)N1C (stereo not given) | / | / | -11 | 104
CCS(=O)(=O)Nc1cc(C(C)(C)C)on1 | 113 | 98 | -6 | 106
O=C(O)/C=C\C(=O)N1CCN(c2nc(-c3ccccc3)ns2)CC1 | 78 | 85 | -21 | 100
COCc1c(C(=O)OCc2cc(Cl)cc3c2OCOC3)oc2ccccc12 | 74 | 93 | -30 | /
Cc1cccc(OCC(=O)N(Cc2ccccc2)c2ccccn2)c1 | 109 | 92 | 0 | 100
O=C1C=C(Nc2ccccc2)CC(c2ccccc2)C1 (stereo not given) | 107 | 92 | -6 | 110
Cc1nc(NC(=O)c2oc3ccccc3c2C)sc1C(=O)N(C)C | 97 | 101 | -23 | 104

Shown field by field: entries from further up.
molecule: CCN(C(=O)CCn1c(=O)sc2ccccc21)c1cccc(C)c1
  Sa growth 42C = 90 | Sa growth 42C second temp = 79 | HCMV NEC inh = -23 | GIV-Gai inh = 102
molecule: O=C1C=C(Nc2ccccc2)CC(c2ccccc2)C1 (stereo not given)
  Sa growth 42C = 107 | Sa growth 42C second temp = 92 | HCMV NEC inh = -6 | GIV-Gai inh = 110
molecule: FC(F)(F)c1cc(Sc2ccccc2)nc(-c2ccccn2)n1
  Sa growth 42C = / | Sa growth 42C second temp = / | HCMV NEC inh = 5 | GIV-Gai inh = 107
molecule: O=C(O)/C=C\C(=O)N1CCN(c2nc(-c3ccccc3)ns2)CC1
  Sa growth 42C = 78 | Sa growth 42C second temp = 85 | HCMV NEC inh = -21 | GIV-Gai inh = 100

Going on with the list:
SMILES | Sa growth 42C | Sa growth 42C second temp | HCMV NEC inh | GIV-Gai inh
Brc1ccc(-n2cccc2)nc1 | 96 | 90 | -39 | 107
Cc1c(C)n(C)c2ccc(C(=O)NCCCN3CCCCC3)cc12 | 102 | 94 | / | 107
CCC(=O)OCc1cnc(C)c2oc(=O)c(C(=O)Nc3ccccc3OC)cc12 | / | / | -16 | 110
Cc1cccc(NC(=O)Cn2c(=O)n(CCC(=O)N3CCc4ccccc4C3)c(=O)c3ccccc32)c1 | 86 | 84 | -12 | 102
CCN(CC)C(=O)Cn1cc(C(=O)C(C)C)c2ccccc21 | 99 | 79 | -4 | 105
CCc1ccc(CNC(=O)c2cc3c(=O)n(Cc4cccs4)ccc3nc2C)cc1 | 102 | 95 | / | 105
CC(NC(=O)C1CCCN1S(=O)(=O)c1cccc2cccnc12)c1ccccc1 (stereo not given) | / | / | -27 | 100
CC1CCCCN1CCNC(=O)C1CCCN(c2ccc(-c3ccccc3)nn2)C1 (stereo not given) | / | / | -36 | 100
CSC1=C(C#N)C2(CCCC2)C(C#N)C(=O)N1 (stereo not given) | 135 | 85 | -12 | /
N#C/C(=C\N1CCC(n2cccc2)CC1)C(=O)c1ccccc1 | 99 | 80 | -40 | 109
CCCCNc1nc(Oc2ccc(=O)n(-c3ccccc3)n2)nc(N(C)C)n1 | 104 | 88 | -41 | 97
CC(C)NC(=O)N1CCCC(c2cccc(C(=O)NC(C)c3ccccc3)c2)C1 (stereo not given) | / | / | -27 | 104
COc1ccc(C2OC(=O)CC2C(=O)NCc2ccc(C)cc2)cc1OC (stereo not given) | 94 | 100 | 12 | 107
CCn1c(=O)c(=O)n(CCC(=O)NCc2ccccc2OC)c2cccnc21 | / | / | -16 | 103
Nc1nc(SCCc2ccccc2)n[nH]1 | 103 | 100 | 2 | 103
CC(=O)N1CCC(C(=O)NCc2ccc(-n3cccn3)cc2)CC1 | 101 | 78 | -5 | 107

Single values from the results shown.
CCC(=O)OCc1cnc(C)c2oc(=O)c(C(=O)Nc3ccccc3OC)cc12 in GIV-Gai inh shows 110
Cc1cccc(NC(=O)Cn2c(=O)n(CCC(=O)N3CCc4ccccc4C3)c(=O)c3ccccc32)c1 in Sa growth 42C shows 86
